A1 inh = inhibitors of the anti-apoptotic protein A1, read as caspase activation | MEF A1-2A-BIM cells, Caspase-Glo 3/7 luminescence, 3 h; percent of clofoctol response, vehicle zero | caspase activation, % (test concentration not listed) | 330,000 tested, 0.066% active | AID 2462;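 active means over half of replicate activation scores above 10%, or exactly half above 10 with the replicate mean above 10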;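 further: wells of about 30 µL received 50 nL stock; many hits fall short of the cut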
rRNA inh HTS = inhibits bacterial ribosomal RNA function over humanized ribosomes; E. coli WT GFP vs humanized-ribosome RFP mutants, fluorescence, 24 h; stronger effect = lower value; DMSO median 0, no signal -100; GFP signal change (wild-type ribosome), % (test concentration not listed); 350,000 tested, 1.6% active; AID 720706;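 active means significant combined selectivity score with lowered wild-type GFP, culture density cut under 30%, mutant RFP and density less affected; inactive means any of these conditions unmet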; further: one replicate is shown; some compounds called inactive have numbers as strong as hits
MLL AF4-AF9 inh = MLL-AF4/AF9 protein interaction inhibition. P42568. AlphaScreen, biotin-AF4 peptide binding to FLAG-AF9. inhibition, % at 10 µM. 350,000 tested, 0.47% active. AID 651704;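 active means every replicate reaching a set inhibition limit, whatever the replicate mean, cut at about 25% in these data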;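 further: 0% = plate neutral control median and 100% = total signal loss; the record names both 10 and 1 µM as test concentration; the first replicate is given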
Target sequence (P42568 whole entry, looked up): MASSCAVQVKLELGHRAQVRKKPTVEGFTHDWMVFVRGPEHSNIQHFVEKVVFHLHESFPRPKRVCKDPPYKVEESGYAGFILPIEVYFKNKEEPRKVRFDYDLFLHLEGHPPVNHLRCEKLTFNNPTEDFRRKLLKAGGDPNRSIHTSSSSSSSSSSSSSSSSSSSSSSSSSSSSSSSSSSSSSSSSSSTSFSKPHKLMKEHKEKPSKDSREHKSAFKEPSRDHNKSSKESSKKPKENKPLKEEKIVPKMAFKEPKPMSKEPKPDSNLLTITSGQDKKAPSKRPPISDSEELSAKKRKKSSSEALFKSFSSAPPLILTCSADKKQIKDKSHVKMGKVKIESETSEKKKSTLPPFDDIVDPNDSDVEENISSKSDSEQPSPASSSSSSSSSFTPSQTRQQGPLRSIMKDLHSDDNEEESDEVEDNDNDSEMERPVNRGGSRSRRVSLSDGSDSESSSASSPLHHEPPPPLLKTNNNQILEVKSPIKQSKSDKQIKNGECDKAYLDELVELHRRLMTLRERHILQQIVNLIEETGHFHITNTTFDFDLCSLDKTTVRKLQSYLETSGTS
T cruzi inh = T. cruzi replication inhibition; T. cruzi beta-gal in NIH3T3, luminescence, 90 h; inhibition, % (concentration not given with the values); 300,000 tested, 1.4% active;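 active means mean inhibition across valid replicates above about 55%, limit read from the data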;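 further: signal also drops with host cell toxicity which is not excluded here; 0% = plate median of DMSO wells and 100% = zero luminescence signal; higher percent means less beta-gal luminescence so fewer parasites; stock transfer was 50 nL into about 50 µL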
Beta apoptosis = beta cell apoptosis inhibition. INS-1E cytokine-induced death, ATP luminescence, 48 h; percent of positive-control rescue, neutral wells zero. protection from apoptosis, % (no concentration beside the values). 300,000 tested, 0.8% active. AID 435005;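 active means all replicates at 75% or more, or half of them and the mean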;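 further: 0% = cytokine-treated negative control wells and 100% = positive control rescue; higher means more ATP so stronger rescue from cytokine killing; wells of about 40 µL received 100 nL stock; the first replicate is given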
FGF22 binding = FGF22 (human) thermal shift binding | Q9HCT0 | recombinant FGF22 thermal shift, SYPRO orange fluorescence; percent of sucrose octasulfate shift, DMSO zero | calls only at 9.99 µM | 340,000 tested, 1.5% active | AID 651658;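 active means melting point raised past a set limit in the mean and every replicate; three in four hits are not shown here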
UCH37 inh = human UCH37 deubiquitinating enzyme inhibition; Q9Y5K5; purified proteasome/UCH37, Ub-AMC cleavage fluorescence; inhibition, % (test concentration not listed); 330,000 tested, 0.33% active; AID 588478;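 active means mean of two replicates above 20%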;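 further: 0% = compound-free wells with enzyme and 100% = wells lacking proteasome; stock transfer was 100 nL into about 20 µL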
Target sequence (Q9Y5K5 whole entry, looked up): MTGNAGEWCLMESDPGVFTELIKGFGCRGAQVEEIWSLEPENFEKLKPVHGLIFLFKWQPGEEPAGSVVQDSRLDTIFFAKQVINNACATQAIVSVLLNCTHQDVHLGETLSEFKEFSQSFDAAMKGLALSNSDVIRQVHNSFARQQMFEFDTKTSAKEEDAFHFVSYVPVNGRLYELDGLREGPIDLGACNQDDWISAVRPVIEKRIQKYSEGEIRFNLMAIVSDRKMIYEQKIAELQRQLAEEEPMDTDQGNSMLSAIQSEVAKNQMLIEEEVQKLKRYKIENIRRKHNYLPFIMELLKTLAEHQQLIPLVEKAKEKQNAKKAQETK
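System: Proteasome-associated human UCH37 deubiquitinase; Input: 0.15 nM proteasome in added enzyme buffer; Also added: Ub-AMC substrate from 1 µM stock; Incubation: 30 min compound-proteasome preincubation then 25 min substrate reaction, room temperature; Detection: fluorescence, ex 355 nm, em 460 nm; Read-out: % inhibition of Ub-AMC cleavage fluorescence; Benchmarks: no-proteasome and no-compound wells.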
Ecoli growth = blocks Escherichia coli growth. OD600, 23 h; stronger effect = lower value. OD600 absorbance (no concentration beside the values). 330,000 tested, 0.21% active. AID 1053175;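 active means OD600 absorbance below the run mean of sample wells minus 3.6 SD, in any replicate, cut at about 0.56 in these data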;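 further: stock transfer was 300 nL into about 60 µL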
rRNA inh HTS OD600 = further read-out of rRNA inh HTS, marked with its call; OD600 change, %; measured here: OD600 growth;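 optical density of the mix in the first replicate; 0 = DMSO median and -100 = no signal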
rRNA inh HTS RFP = further read-out of rRNA inh HTS, marked with its call; RFP signal change, %; measured here: RFP humanized mutant strains;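 first replicate; 0 = DMSO median and -100 = no signal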
An asterisk follows results filed as active; i = inactive; · = not tested or not shown; & = joins results of further samples. Only part of the results is shown; count on the stated rates, not on these rows.

SMILES	A1 inh	rRNA inh HTS	rRNA inh HTS OD600	rRNA inh HTS RFP	MLL AF4-AF9 inh	T cruzi inh	Beta apoptosis	FGF22 binding	UCH37 inh	Ecoli growth
O=C(O)c1cccc(COc2ccc(CO)cc2Cl)c1	-8.1	-4.5	-0.2	1.6	-0.8	-10.8	-5.7	i	4.4	0.665
CCCOc1cc(N)ccc1C(=O)OCCN(CC)CC	-1.0	·	·	·	1.9	·	·	i	0.5	0.705
O=C1CSC(c2ccc([N+](=O)[O-])cc2)N1C1CCCCC1 (centres undefined)	0.1	0.3	1.2	-1.3	-11.4	8.5	·	i	3.4	0.689
Oc1ccc(C=NC2CCCCC2)cc1	-0.4	5.4	-5.9	1.4	-0.2	-5.3	·	i	4.9	0.633
CCN(CCCNS(=O)(=O)c1ccc2c(c1)oc(=O)n2C)c1cccc(C)c1	0.1	-20.6	-24.3	-1.5	3.9	·	-2.2	i	2.6	0.735
COCCCn1c(=O)c2ccccc2n2c(=S)[nH]nc12	1.0	9.1	6.4	-0.2	-3.4	-14.4	0.4	i	0.4	0.67
Cc1ccsc1/C=C1\CCC(C2CCCC2)C1=O (centres undefined)	-6.9	-22.7*	-10.7*	0.3*	6.1	-1.6	1.1	i	5.0	0.692
CCC(=O)OCc1c(C(F)(F)F)nn(C)c1Sc1ccc(Cl)cc1	-0.1	·	·	·	·	-64.6	-6.5	·	0.2	0.738
O=C(Nc1nc(-c2ccc(Cl)s2)cs1)c1ccco1	0.3	-31.4	-71.4	-10.8	-6.7	40.3	10.9	i	-1.2	0.605
O=C1c2cccc3c(N4CCCCC4)ccc(c23)C(=O)N1c1ccc(O)cc1	1.2	32.2	-7.7	-0.3	-11.9	17.3	7.7	i	-1.1	0.745
CCOC(=O)CSc1nc(N)c(C#N)c(CC(C)C)c1C#N	-0.3	·	·	·	·	-3.7	-3.0	·	2.6	0.673
CCCCn1nnc(NC(=O)c2ccc(-c3cccc(Cl)c3)o2)n1	-0.6	·	·	·	·	8.2	-10.3	·	0.5	0.615
COc1ccc2c(CC(=O)OCC(=O)N(C)c3c(N)n(Cc4ccccc4)c(=O)[nH]c3=O)coc2c1	·	1.8	5.0	0.2	-3.5	·	·	i	1.4	0.653
Cc1cc(=O)oc2c(CN3CCC(C)CC3)c(O)c(Cl)cc12	-0.1	·	·	·	·	1.9	1.0	·	i	0.686
CN1C(=O)/C(=C/c2ccccc2OCc2cccc(F)c2)N(C)C1=S	0.3	·	·	·	·	9.6	-3.0	·	2.5	0.752
O=C(O)c1ccc(Cl)c(S(=O)(=O)Nc2ccccc2C(=O)Nc2ccc(Cl)cc2)c1	0.7	-4.8	-10.1	1.6	-0.2	-20.6	-4.8	i	-1.4	0.702
O=C(O)/C=C/C(=O)N(CC1CCCO1)C1CC(=O)N(c2c(Cl)cccc2Cl)C1=O (centres undefined)	0.9	12.3	-0.6	-3.2	5.2	5.5	-0.8	i	2.8	0.725
O=C(NC1CCCCC1)C(c1ccc(F)cc1)N(Cc1cccs1)C(=O)CN1C(=O)c2ccccc2S1(=O)=O (centres undefined)	1.4	·	·	·	·	6.8	-3.6	·	1.7	0.7
CCOC(=O)CSc1nnc(C)n1N	-0.2	·	·	·	·	-13.4	-4.0	·	3.0	0.745
C/C(=N/OCO/N=C(\C)c1ccccc1F)c1ccccc1F	1.3	5.0	18.2	-6.1	-8.8	7.4	-6.7	i	·	·
O=C(Nc1ncccc1Cl)C(Sc1ccccc1)c1ccccc1 (centres undefined)	1.5	·	·	·	·	0.0	-0.5	·	3.6	0.724
CCOc1ccccc1NC(=O)C(NCCc1ccc(OC)cc1)c1ccccc1 (centres undefined)	-1.9	2.9	13.4	-3.7	-1.9	18.9	1.2	i	1.2	0.72
O=S(=O)(c1ccc2c(c1)OCCCO2)N1CCNCC1	0.4	·	·	·	·	9.0	-2.7	·	0.3	0.7
Cc1cccc(NC(=O)C2CC(=O)N(c3ccc4c(c3)OCCO4)C2)n1 (centres undefined)	-0.3	3.1	13.6	-0.5	-1.2	·	-0.6	i	2.9	0.664

Some of these compounds in order of SMILES length, rising:
SMILES	A1 inh	rRNA inh HTS	rRNA inh HTS OD600	rRNA inh HTS RFP	MLL AF4-AF9 inh	T cruzi inh	Beta apoptosis	FGF22 binding	UCH37 inh	Ecoli growth
CCOC(=O)CSc1nnc(C)n1N	-0.2	·	·	·	·	-13.4	-4.0	·	3.0	0.745
O=S(=O)(c1ccc2c(c1)OCCCO2)N1CCNCC1	0.4	·	·	·	·	9.0	-2.7	·	0.3	0.7
O=C(Nc1ncccc1Cl)C(Sc1ccccc1)c1ccccc1 (centres undefined)	1.5	·	·	·	·	0.0	-0.5	·	3.6	0.724
C/C(=N/OCO/N=C(\C)c1ccccc1F)c1ccccc1F	1.3	5.0	18.2	-6.1	-8.8	7.4	-6.7	i	·	·
Cc1cc(=O)oc2c(CN3CCC(C)CC3)c(O)c(Cl)cc12	-0.1	·	·	·	·	1.9	1.0	·	i	0.686
CCCCn1nnc(NC(=O)c2ccc(-c3cccc(Cl)c3)o2)n1	-0.6	·	·	·	·	8.2	-10.3	·	0.5	0.615
CN1C(=O)/C(=C/c2ccccc2OCc2cccc(F)c2)N(C)C1=S	0.3	·	·	·	·	9.6	-3.0	·	2.5	0.752
Cc1cccc(NC(=O)C2CC(=O)N(c3ccc4c(c3)OCCO4)C2)n1 (centres undefined)	-0.3	3.1	13.6	-0.5	-1.2	·	-0.6	i	2.9	0.664
O=C1c2cccc3c(N4CCCCC4)ccc(c23)C(=O)N1c1ccc(O)cc1	1.2	32.2	-7.7	-0.3	-11.9	17.3	7.7	i	-1.1	0.745
O=C(O)/C=C/C(=O)N(CC1CCCO1)C1CC(=O)N(c2c(Cl)cccc2Cl)C1=O (centres undefined)	0.9	12.3	-0.6	-3.2	5.2	5.5	-0.8	i	2.8	0.725
COc1ccc2c(CC(=O)OCC(=O)N(C)c3c(N)n(Cc4ccccc4)c(=O)[nH]c3=O)coc2c1	·	1.8	5.0	0.2	-3.5	·	·	i	1.4	0.653
O=C(NC1CCCCC1)C(c1ccc(F)cc1)N(Cc1cccs1)C(=O)CN1C(=O)c2ccccc2S1(=O)=O (centres undefined)	1.4	·	·	·	·	6.8	-3.6	·	1.7	0.7

Remaining list, next part.
SMILES	A1 inh	rRNA inh HTS	rRNA inh HTS OD600	rRNA inh HTS RFP	MLL AF4-AF9 inh	T cruzi inh	Beta apoptosis	FGF22 binding	UCH37 inh	Ecoli growth
O=C1NC(c2ccccc2Cl)Nc2ccccc21 (centres undefined)	1.4	·	·	·	·	-13.4	-1.7	·	-320.5	0.687
CCOC(=O)c1cc(CC)sc1N1C(=O)CC(Sc2ccccc2C(=O)O)C1=O (centres undefined)	-0.6	8.9	2.1	-3.1	3.7	-49.2	-4.3	i	-1.0	0.691
COC(=O)Cc1c(C)c2c(OCc3nn[nH]n3)cc(C)cc2oc1=O	-0.6	·	·	·	·	-1.4	0.3	·	-308.7	0.687
Cc1nc2c(C(F)(F)F)cccc2c2c1CCS2	0.5	-0.4	-11.0	-4.1	-1.3	-16.6	-4.9	i	-26.8	0.721
CCOC(=O)c1c[nH]c2c([N+](=O)[O-])cc(OC)cc2c1=O	·	-7.1	-12.2	2.6	-0.1	·	·	i	8.6	0.455*
COc1ccc(NC(=O)Nc2cccc3c2O[C@H](CN(C)S(=O)(=O)c2cccs2)[C@@H](C)CN([C@H](C)CO)C3=O)cc1	-0.3	-3.8&-10.1	-10.1&-8.3	1.8&2.5	-0.6&-1.8	·	-2.1	i	0.7	·
Cc1cn([C@H](C(=O)NCCCCCCCCCCC(=O)N2CCN(C(=O)OC(C)(C)C)CC2)[C@@H](C)O)nn1	0.0	-9.8	-4.2	-0.5	-0.5	·	-1.2	i	-1.5	·
FC(F)(F)c1nnc2ccc(NCc3ccccc3)nn12	0.0	-12.7	-4.9	-3.1	-1.3	-15.7	-2.2	i	4.3	0.74
Cc1ccc(NC(=O)CSc2nnc(-c3ccccc3C)o2)cc1C	-0.4	·	·	·	·	-2.4	-4.4	·	-0.3	0.641
CCOc1ccccc1C1C(C(N)=O)=C(C)Nc2nc(-c3cccc(C)c3)nn21 (centres undefined)	-0.1	·	·	·	·	16.5	-4.0	·	-4.4	0.671
CC(C)OCCCNC(=O)C(=O)N/N=C/c1ccc(OCc2ccccc2)cc1	-1.0	5.3	9.2	-2.2	·	-9.5	·	i	·	·
CCCn1c(SCC(=O)N2CCCc3ccccc32)nnc1-c1ccccn1	-0.7	·	·	·	·	-6.4	-1.3	·	-0.6	0.747
COc1ccc(CC(CC(=O)O)C(=O)Nc2ccc(Cl)c(Cl)c2)cc1 (centres undefined)	-1.2	-31.6	-40.3	-10.9	-13.5	-6.9	6.5	i	1.3	0.688
COc1ccccc1CN1C(=O)CCC1(C)C(=O)NC1CCCCCC1 (centres undefined)	0.1	·	·	·	·	-4.2	-3.6	·	3.5	0.715
O=C(NCC1CCCO1)c1ccc(CNS(=O)(=O)c2ccc(F)c(Cl)c2)cc1 (centres undefined)	-0.3	-0.9	-1.0	-1.5	-2.8	6.9	1.0	i	0.5	0.691
C/C(=C\C(=O)C(F)(F)F)Nc1cc(C)cc(C)c1	1.4	·	·	·	·	2.0	-1.8	·	0.9	0.738
O=C(O)CCn1c2c(c3ccccc31)CCCC2	-0.5	-7.4	-12.2	-0.4	·	-13.0	-3.3	·	0.5	0.729
COc1ccc(NC(=O)CSc2ccccn2)cc1OC	0.5	·	·	·	·	-7.2	-1.9	·	1.6	0.67
COc1ccc(C(=O)NNC(=O)Cc2nc3nc(C)cc(C)n3n2)cc1	0.1	12.9	5.7	2.8	0.4	-14.7	-6.3	i	0.9	0.681
CC1CCCCC12NC(=O)N(CC(=O)NCCc1ccccc1)C2=O (centres undefined)	-0.7	3.2	5.0	-5.6	-1.2	·	4.4	i	1.9	0.688
COc1ccc(Cl)cc1C(=O)NNC(=O)CCNS(=O)(=O)c1ccccc1	1.4	-0.9	8.3	1.9	-1.0	·	3.1	i	1.6	0.674
CC1CN(CC(O)COC2CCC(C(C)(C)C)CC2)CC(C)O1 (centres undefined)	1.1	1.8	13.1	0.1	0.3	15.0	4.2	i	-2.2	0.708
